Assay outcomes deposited in PubChem by National Center for Advancing Translational Sciences (NCATS).
D2 ag = human D2 receptor agonism in beta-arrestin assay; P14416; DiscoveRx PathHunter D2 beta-arrestin, luminescence, 90 min; 100% = 57 uM dopamine signal; activation, % (concentration not given with the values); 360,000 compounds, 0.084% hits; AID 624465; in the data active = activation above about 40%; inconclusive = about 15% to 40%; inactive = below about 15%; note: the text of the record calls up to 30% inactive
Target sequence (P14416 whole entry, looked up): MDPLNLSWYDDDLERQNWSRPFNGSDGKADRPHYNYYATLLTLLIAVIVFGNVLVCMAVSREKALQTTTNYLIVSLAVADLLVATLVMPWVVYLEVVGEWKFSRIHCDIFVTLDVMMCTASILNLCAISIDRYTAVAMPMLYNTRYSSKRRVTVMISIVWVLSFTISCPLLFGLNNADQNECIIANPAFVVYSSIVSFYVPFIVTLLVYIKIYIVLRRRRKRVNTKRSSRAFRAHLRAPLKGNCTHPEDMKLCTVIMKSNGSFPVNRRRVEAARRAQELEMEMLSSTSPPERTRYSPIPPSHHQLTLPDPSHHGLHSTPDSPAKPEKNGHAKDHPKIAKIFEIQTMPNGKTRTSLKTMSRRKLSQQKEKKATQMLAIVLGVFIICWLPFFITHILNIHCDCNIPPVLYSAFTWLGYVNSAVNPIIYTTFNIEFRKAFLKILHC
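Agonist mode: compounds alone added to overnight-plated D2 PathHunter cells for 90 min at 37 C, with 57 uM final dopamine (EC100) defining full response. Beta-arrestin recruitment detected by chemiluminescent reagent, read after 1 h at ambient temperature.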
Sfp PPTase inh = blocks B. subtilis Sfp PPTase activity; Potency, µM, inactives show max response, negative = inhibition, actives largely listed as inhibitors; Biochemical Sfp PPTase activity, qHTS; 310,000 compounds, 3.5% hits; active = well fitted inhibition curve with a large enough effect; inconclusive = small, poorly fitted or top-dose-only effect, or another doubt; inactive = no such curve, though single readings can be large or run the other way;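 note: the enzyme is Sfp with the accession as filed and its product quenches rhodamine fluorescence; potency is the fitted concentration of half-maximal effect; 0% = enzyme reaction without inhibitor and -100% = no enzyme wells; top concentration of the series not given in the record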
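Reaction rates are the 30-min fluorescence difference (ex 525, em 598 nm) in wells containing 15 nM Sfp, 5 uM rhodamine-CoA and 12.5 uM BHQ-2-YbbR at pH 7.6 with 10 mM MgCl2.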
Menin-MLL FL inh = displaces fluorescein MLL peptide from human menin | AID 1766 | FP activity change, % at 61.4 µM | 290,000 tested, under 10 active | Fluorescence polarization, fluorescein-MLL peptide displacement from menin; inconclusive = falling polarisation curve, or a change in total fluorescence; inactive = total fluorescence flat and polarisation flat or rising; no compound was filed as active; the % refers to the polarisation; negative = inhibition;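 note: % of control where 0% means no effect; inhibitors lower the polarisation; unlabelled MLL peptide was the positive control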
gsp ag = activates gsp, the McCune-Albright syndrome mutation | gsp mutant cells, cAMP HTRF, 30 min; control for the full effect not named in the record | Potency, µM (top dose mostly 76.9 µM), inactives show at the top dose activation (cAMP increase), most hits filed as activators | 340,000 compounds, 0.13% hits; active = well fitted activation curve with a large enough effect; inconclusive = small, poorly fitted or top-dose-only effect, or another doubt; inactive = no such curve, though single readings can be large or run the other way; cell line not stated here;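 note: phosphodiesterase inhibitor Ro 20-1724 added with compounds to block cAMP breakdown; potency is the fitted concentration of half-maximal effect; nearly all actives have a fitted effect of over 60% in size; about a fifth of the inactives were tested at one dose only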
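Cells in DMEM/10% FBS with G418 were pretreated with compounds in DMSO plus […] (300 uM stock) for 30 min at 37C. cAMP was measured by HTRF (cAMP-d2 plus anti-cAMP antibody-K) after 30 min at room temperature.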
PINK1 expr mod = PINK1 expression modulation. PINK1 immunofluorescence, high-content cytometry, 24 h. Potency, µM (top dose mostly 76.6 µM), without a hit: top-dose activation (PINK1 increase), usual class: activators. 410,000 compounds, 0.2% hits. AID 624263; active = well fitted activation curve with a large enough effect; inconclusive = small, poorly fitted or top-dose-only effect; inactive = flat fitted curve, though single readings scatter; cell line not stated here;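 note: potency is the fitted concentration of half-maximal effect; % of control where 0% means no effect; nearly all actives have a fitted effect of over 65% in size; a mitochondrial uncoupler was the plate control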
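PINK1 protein level read as immunofluorescence by microplate cytometer in a fixed, stained stable cell line after 24 h exposure to five compound concentrations, with CCCP as control.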
ClpP mod = qHTS Assay for Activators of ClpP; purified B. subtilis ClpP, FRET peptide cleavage, 20 min; 340,000 compounds, 1.9% hits; ATP-dependent Clp protease proteolytic subunit (Bacillus subtilis (strain 168)), P80244; AID 651965, 2013; Potency, µM (series often up to 57.5 µM), without a hit: at the top dose activity change, negative = active; active = well fitted falling curve with a large enough effect; inconclusive = small, poorly fitted or top-dose-only effect; inactive = no such curve, though single readings can be large or run the other way; note: potency is the fitted concentration of half-maximal effect; the source files actives as falling curves though it sought activators and does not explain the sign; nearly all actives have a fitted effect of over 65% in size; many hits overshoot -100%
Target sequence (P80244 whole entry, looked up): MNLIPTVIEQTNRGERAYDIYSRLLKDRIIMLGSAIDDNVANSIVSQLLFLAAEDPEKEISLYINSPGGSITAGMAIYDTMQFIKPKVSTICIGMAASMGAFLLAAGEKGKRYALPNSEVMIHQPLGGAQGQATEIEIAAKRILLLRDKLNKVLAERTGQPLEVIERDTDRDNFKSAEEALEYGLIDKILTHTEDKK
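FRET quenching reversal measured ClpP activation: 10 microg/mL B. subtilis ClpP at pH 8 with the FRET-FV decapeptide, read at 430 nm after 320 nm excitation. The 20-min minus 0-min signal was scaled between DMSO/no-enzyme wells and ADEP (5.8 microM final).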
gsp antag = antagonists of gsp mutant (McCune-Albright syndrome) | gsp-mutant cells, cAMP HTRF, 30 min; control for the full effect not named in the record | Potency, µM (series often up to 76.9 µM), without a hit: top-dose activity change, negative = inhibition, hits mostly inhibitors | AID 624288 | 340,000 compounds, 0.4% hits; active = falling curve of any shape with a large fitted effect; inconclusive = falling curve, mostly with a smaller effect; inactive = flat or rising curve; cell line not stated here;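 note: intracellular cAMP measured with PDE inhibitor Ro 20-1724 present during compound exposure; potency is the fitted concentration of half-maximal effect; % is set by controls: 0 for no effect and ±100 for the full control effect; nearly all actives have a fitted effect of over 65% in size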
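HTRF cAMP measurement after 30 min RT detection following 30 min, 37C compound treatment alongside […] (added as 300 uM solution) in G418-selected cells seeded at 2000/well and grown 16–24 h.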
An asterisk follows results filed as active; ? = inconclusive; . = not tested or not shown; & = joins results of further samples; [ ] = another dose, or the depositor's remark.

SMILES	D2 ag	Sfp PPTase inh	Menin-MLL FL inh	gsp ag	PINK1 expr mod	ClpP mod	gsp antag
Cc1ccc(NC(=O)C2(S(=O)(=O)c3ccc(Cl)cc3)CC2)c(Br)c1	-5.4	13.4%	6.9	4.0%	10.7%	.	?
Cc1ccccc1NC(=O)Cc1nc(COC(=O)c2ccc(O)cc2O)cs1	-2.7	-0.4%	0.3	0.1%	-0.2%	-2.1%	-2.4%
Cc1ccc(C(=O)c2c3ccccc3[n+]([O-])n2CCC(=O)O)cc1	-2.2	.	.	5.6%	-1.1%	-5.8%	2.8%
O=c1nc(C(F)(F)F)nc2ccccn12	-3.1	8.2%	3.7	-3.5%	4.4%[38.3 µM]	?	-0.1%
O=C(NNc1nc2ccccc2s1)Nc1ccccc1	-2.9	3.5%	3.6	-20.6%	-2.2%	-7.1%	8.6%
COc1cccc(CNC(=O)c2ccccc2NC(=O)C2=C(C)OCCS2)c1OC	4.4	-13.6%	-7.0	-6.5%	4.1%	-5.7%	-0.7%
Cc1ccc(C(=O)N2N=C(c3ccccc3O)CC2c2ccccc2)cc1 (stereo unspecified)	-3.3	-17.5%	-6.3	-6.5%	6.3%	.	-8.9%
CCOC(=O)Cc1ncccc1C(=O)Nc1ccc(OC)cc1	-4.5	12.9%	11.3	3.8%[15.4 µM]	1.3%	.	-10.5%
CC(C)=NNc1cc([N+](=O)[O-])cc2c1C(=O)N(C)S2=O (stereo unspecified)	-3.1	15.8µM*	1.1	-16.8%	0.5%	0.7%	5.9%
CC(=O)Nc1sc2c(c1CN1CCN(c3ccccn3)CC1)CCCC2	-2.6	-4.2%	6.1	-25.6%	1.1%[38.3 µM]	-0.2%	-12.1%
COc1ccc(C2=NOC3(CC(=O)N(c4ccc(F)cc4)C3=O)C2)c(OC)c1 (stereo unspecified)	0.1	10.6%	1.9	39.1%	-1.8%[38.3 µM]	5.0%	-1.6%
COc1cc(NC(=O)c2cccc(C)c2)c(OC)cc1NC(=O)CN1CCCCC1	-2.7	6.0%	-3.7	3.2%[15.4 µM]	1.1%	.	-20.0%
O=C(c1ccccc1)c1ccc2ccccc2c1	-3.9	.	.	3.4%	22.0%	.	-13.7%
CCN(C(=O)COC(=O)c1cccc(-n2cnnn2)c1)C1CCCCC1	-0.3	3.1%	-0.1	-3.2%[15.4 µM]	1.2%	-2.7%	6.2%
CN(c1ccccc1)S(=O)(=O)c1cc(C(=O)N2CCN(c3ccccn3)CC2)ccc1Cl	-0.6	1.1%	6.4	14.4%	0.1%	-11.9%	?
CCN1C(=O)[C@H]2[C@@H](c3ccc(C(F)(F)F)cc3)N[C@]3(CCCN(Cc4ccc(Cl)cc4)C3=O)[C@H]2C1=O	-4.6	.	.	?	4.5%	1.4%	.
Cc1nn(Cc2ccc(C(=O)NC3CCCCC3)o2)c(C)c1Br	-1.3	7.3%	0.9	19.7%	.	-0.5%	6.0%
O=C(COc1ncnc2cc([N+](=O)[O-])ccc12)NCc1ccc2c(c1)OCO2	3.7	-14.9%	-0.7	?	-0.9%	-5.1%	4.4%
CCOC(=O)C1=C(CP(=O)(c2ccccc2)c2ccccc2)NC(=O)NC1c1ccc(Cl)cc1 (stereo unspecified)	-0.1	-4.9%	-0.9	-8.0%[15.4 µM]	0.1%	1.7%	0.2%
COC(=O)C1=C(C(=O)c2ccc(C)cc2)C(c2ccc(O)c(OC)c2)n2nnnc2N1 (stereo unspecified)	-2.9	12.5%	15.7	-14.0%	-0.6%	0.4%	-12.5%
COc1ccc(NC(=O)Cn2nnc(-c3ccccc3F)n2)cc1	-2.2	14.7%	1.1	-20.5%	0.2%	-2.1%	-0.4%
Cc1cccc(N2CCN(C(=O)c3cccs3)CC2)c1C	0.3	-11.4%	0.7	3.3%[15.4 µM]	0.2%	5.1%	-1.8%
O=C(c1ccccn1)N1N=C2/C(=C/c3ccc(F)cc3)CCCC2C1c1ccc(F)cc1 (stereo unspecified)	2.2	5.2%	1.0	20.7%[15.4 µM]	-1.5%	-0.8%	?
CC(C)C1Oc2ccccc2N(CC(=O)N2CCOCC2)C1=O (stereo unspecified)	-2.2	20.4%	.	9.5%[15.4 µM]	2.3%	.	8.4%
C/C(=N\NC(=O)c1cc(-c2ccc(C)s2)[nH]n1)c1ccncc1	-0.7	6.7%	-1.5	1.4%	-2.0%	.	-12.4%
CCOC(=O)c1c(C)[nH]c(C(=O)CN(C)CC(=O)Nc2ccccc2C(F)(F)F)c1C	4.2	.	.	-36.4%[inhibitor]	0.6%	0.0%	1.2%
COc1ccccc1Nc1nnc(SCC(=O)c2cc(C)n(CC3CCCO3)c2C)s1 (stereo unspecified)	1.5	10.2%	1.2	-46.9%[inhibitor]	-1.2%	-4.4%	1.4%
O=C(c1ccc(Cl)cc1)c1ccc(OCC(=O)N2CCOCC2)cc1	-1.6	-8.1%	-2.4	2.7%	-0.1%	-1.6%	-20.8%
CC(=O)OC(C(=O)NC1CCCCC1)c1ccncc1 (stereo unspecified)	-4.1	?	0.9	-19.8%	-1.2%[38.3 µM]	-0.9%	-1.3%
O=C(OCC(=O)N1CCCC1=O)C1COc2ccccc2O1 (stereo unspecified)	-3.1	20.8%	4.9	-46.1%[inhibitor]	0.8%	0.0%	-3.5%
N#Cc1cn(-c2ccccc2)nc1-c1ccco1	0.3	-6.9%	1.0	-0.8%	.	-17.6%	2.7%
COC(=O)CN1C(=O)Nc2ccc(Br)cc2C1c1ccccc1 (stereo unspecified)	0.7	9.8%	0.1	-14.0%	-2.5%	-1.2%	-16.1%
CN(C(=O)c1ccncc1)c1nnc(-c2ccncc2)s1	-1.4	3.7%	-2.4	-28.2%	-1.1%	606.0%	0.3%
O=C1CC(N2CCOCC2)C(=O)N1c1cc(Cl)cc(Cl)c1 (stereo unspecified)	-1.2	-3.4%	-1.1	20.4%	-0.1%[38.3 µM]	0.6%	12.7%
CCOc1ccc(S(=O)(=O)N2CCC(C(=O)NCc3ccccn3)CC2)cc1Cl	-0.6	5.5%	0.4	-55.0%[inhibitor]	-0.8%	.	-2.9%
CSc1ncccc1C(=O)N1CCCC(N2CCN(c3ccccc3C)CC2)C1 (stereo unspecified)	-2.0	.	.	5.3%	2.3%	0.4%	.
COc1ccc(CNC(=O)c2cc(C3CC3)on2)cc1	1.6	9.5%	4.2	-75.4%[inhibitor]	1.7%	1.0%	11.2%
Cc1ccc(Nc2ccc(S(=O)(=O)N3CCOCC3)cc2[N+](=O)[O-])c(C)c1	-1.9	-11.7%	4.6	-7.7%	2.6%	1.1%	-1.2%
O=C(Nc1ccc(C(F)(F)F)cc1)C1CCCCN1S(=O)(=O)c1ccccc1 (stereo unspecified)	-0.3	.	.	10.4%	?	-5.0%	-13.6%
Cc1ccc(NC(=O)C2CCCN(c3nccc(C)n3)C2)c(C)c1 (stereo unspecified)	-0.3	21.9%	-3.7	?	5.3%	.	-1.1%
COc1ccc(S(=O)(=O)n2nc(OC(=O)c3ccccc3Br)cc2N)cc1	-5.2	11.0%	4.4	?	2.0%	0.6%	16.8%
COc1ccc(S(=O)(=O)NCCSC(C)(C)C)cc1Cl	0.6	23.2%	-1.3	-0.7%	.	-7.4%	2.1%
CCOc1ccccc1C(=O)Nc1cc(=O)n(C)c(=O)n1C	-3.1	2.7%	-0.8	27.1%	3.4%	-1.4%	0.6%
Cc1cc(C)nc(NC(=O)CSc2nc3ccccc3o2)n1	-1.9	2.8%	-0.4	10.3%	10.4%[38.3 µM]	1.2%	4.6%
COc1cc(S(=O)(=O)N2CCN(Cc3ccccc3)CC2)ccc1Br	2.8	0.1%	-1.6	?	0.2%	?	0.8%
O=C1ON=C(c2ccccc2)/C1=C/c1ccc(OS(=O)(=O)c2ccccc2)cc1	-2.0	-27.4%	4.9	-0.4%	5.1%	-0.9%	17.9%
COC(=O)c1cccc(C(=O)N2CCCC(Nc3ccc4c(c3)OCCO4)C2)c1 (stereo unspecified)	1.3	9.8%	.	?	1.4%	1.0%	-26.2%
COc1ccc(CNS(=O)(=O)c2ccc(NC(=O)N3CCCCC3)cc2)cc1	3.9	1.3%	-0.4	-3.5%	0.5%	-0.5%	4.5%
O=C(CN(Cc1ccc(F)cc1)C(=O)CNS(=O)(=O)c1ccccc1)NCC1CCCO1 (stereo unspecified)	6.2	6.9%	0.3	-6.3%[15.4 µM]	0.7%	0.6%	9.3%
Cc1cc(OC(=O)c2ccccc2)n(CCC#N)n1	-2.4	-9.2%	4.5	-1.5%	-0.4%	-0.5%	8.0%
Cc1cccc(OCCNC(=O)CCc2ccccc2)c1	-0.1	.	.	-34.3%[inhibitor]	8.9%	2.0%	6.7%
Cc1ccc(NC(=O)NC2CCCCCCC2)cc1C	-3.0	3.5%	.	2.9%	1.9%	-1.9%	-5.1%
COCc1nc2ccccc2n1Cc1c(F)cccc1Cl	-2.3	-7.9%	-2.6	-3.1%[15.4 µM]	0.6%	1.9%	9.5%
COc1ccc(CN(C)C(=O)CNC(=O)c2ccc(C)cc2)cc1	-2.4	13.7%	0.3	3.6%[15.4 µM]	-1.1%	.	3.7%
CS(=O)(=O)N1CCN(C2Cc3ccccc3C2)CC1	-3.3	-0.2%	-2.7	-31.4%[inhibitor]	.	-0.2%	6.8%
COc1ccc([C@@H]2CC=C(C(=O)O)CN2S(=O)(=O)c2ccc(Cl)cc2)cc1	-0.9	.	.	2.6%	1.0%	2.3%	-22.6%
COc1ccc(C(=O)NCC(=O)OCc2ccc(Br)cc2)cc1	8.4	3.2%	0.0	-2.6%	2.4%	.	6.7%
CC(C)COC(=O)C(C#N)c1nc2ccccc2nc1N1CCN(Cc2ccc3c(c2)OCO3)CC1 (stereo unspecified)	-4.4	12.3%	9.0	?	3.4%	-0.8%	11.4%
O=C(CNC(=O)c1ccc2ccccc2c1)OCC(=O)N1CCN(S(=O)(=O)c2ccc3ccccc3c2)CC1	-3.0	6.4%	2.1	-0.8%	1.4%	-15.7%	3.2%
CN(Cc1ccco1)c1ncnc2ccc(-c3ccccc3Cl)cc12	.	?	5.9	.	3.1%&2.1%	.	.
COC(=O)c1cc(OC)c(OC)cc1NC(=S)N1CCC(C(N)=O)CC1	-0.5	-16.4%	-1.3	-38.1%[inhibitor]	-3.7%[38.3 µM]	-0.1%	10.4%
